Source: PubChem BioAssay (several laboratories)
RN4220 kill = S. aureus RN4220 growth inhibition; OD600, 16 h; inhibition, % (test concentration not listed); 0.33% of 330,000 active; AID 1259311;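 active = z-score of -3 or lower and OD600 up to 0.18 on both plates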;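 note: plate controls were untreated cells for no effect and reference antibiotic for full effect; stock transfer was 100 nL into about 80 µL; one replicate is shown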
PrP 5UTR inh = suppresses PrP 5' UTR mRNA reporter expression; cell-based PrP 5' UTR mRNA reporter, plate reader; inhibition, % (test concentration not listed); 0.35% of 340,000 active; AID 488862;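 active = every replicate at 50% or more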;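 note: 0 = median of the neutral control wells; tested in H4 reporter cells; numbers are from one replicate; inactives centre near -14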
Mtb hypoxia rep = inhibitors of hypoxia-regulated fluorescent reporter in Mycobacterium tuberculosis | M. tuberculosis hypoxia-regulated fluorescent reporter, fluorescence | fluorescence inhibition, % (test concentration not listed) | 0.1% of 300,000 active | AID 1159583;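 active = 35 to 45% if threefold the growth effect, above 45% if 1.5-fold the growth effect; inactive = the rest, general growth blockers included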;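 note: wells of about 50 µL received 100 nL stock; 0% = vehicle wells and 100% = reference inhibitor wells; whole bacteria with a GFP reporter of the hypoxia response; strong numbers were not always called active; many hits fall short of the cut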
BJeLR viability = kills HRASV12-expressing BJeLR cells. BJeLR (HRASV12) viability, CellTiter-Glo ATP luminescence, 48 h; reference of the scale not given here. inhibition, % (no concentration beside the values). AID 1554. 0.17% of 300,000 active;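 active = replicate mean above 50%; inconclusive = above 50% but judged a plate artefact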;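 note: 50 nL library stock added to about 25 µL; numbers are from one replicate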
Sa ugtP lethal = growth inhibition of S. aureus ugtP deletion strain; S. aureus RN4220 ugtP deletion, OD600 growth, 16 h; some inactives read as strong as hits; growth inhibition, % (test concentration not listed); 0.54% of 330,000 active; AID 1259309;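 active = z-score under -3 and OD600 up to 0.15 on both plates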;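 note: plate controls were untreated wells for no effect and antibiotic for full effect; wells of about 80 µL received 100 nL stock; the first replicate is given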
Bead autofluor = compound fluorescence in toxin protease inhibitor counterscreen; AID 624483; compound autofluorescence counterscreen, microsphere flow cytometry; stronger effect = higher value; fluorescence intensity (no concentration beside the values); 3.1% of 360,000 active;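 active = at least 3 SD above the mean of all compounds, about 16000 in these data; inconclusive = too few beads counted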;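 note: 100 nL of 1 mM stock went into each well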
Mtb hypoxia rep growth = second read-out of Mtb hypoxia rep, no call of its own (marks repeat the call); growth inhibition, %; measured here: M. tuberculosis growth (absorbance);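 0% = vehicle and 100% = reference antibiotic; read after six days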
An asterisk follows results filed as active; ? = inconclusive; . = not tested or not shown. Compounds were not picked by outcome; 4% or so of the library scored in one or more.

SMILES | RN4220 kill | PrP 5UTR inh | Mtb hypoxia rep | Mtb hypoxia rep growth | BJeLR viability | Sa ugtP lethal | Bead autofluor
Cc1c(C(=O)NCc2ccccc2CN2CCCC2)oc2ccc(F)cc12 | 1.6 | -22 | 10 | 8 | . | 1 | 8341
Cc1nn(-c2ccccc2)c2c1C1(C(=O)Nc3ccccc31)N1C(=N2)Sc2ccccc21 (configuration not stated) | -3.3 | -4 | . | . | -9 | -5 | 4743
CCN1CC(CN(C)Cc2nc(Cc3ccccc3)no2)CC1=O (configuration not stated) | 3.1 | 1 | 5 | -7 | 0 | 3 | 4513
CC(=O)c1ccc(N2Cc3ccccc3C3(CCOCC3)C2=N)cc1 | 2.6 | -14 | 4 | 8 | -2 | 5 | 6380
CCN(CC)C(=O)Cn1cc(S(=O)(=O)CC(=O)Nc2ccccc2F)c2ccccc21 | 2.5 | -11 | -2 | -2 | -3 | 2 | 6062
Cc1ccc(S(=O)(=O)N2CCN(c3ccccc3)CC2)cc1C | -2.8 | -26 | -3 | 7 | -15 | 4 | 4014
O=C(O)c1ccc(NN=Cc2ccc(OC(=O)c3cccc(Cl)c3)cc2)cc1 | 0.7 | . | 5 | -5 | . | 0 | .
CNC(=O)/C(=C\C=C\c1ccccc1)NC(=O)c1ccc([N+](=O)[O-])cc1 | 9.6 | -6 | 1 | 6 | -16 | 6 | 9480
Cc1onc(-c2c(F)cccc2Cl)c1C(=O)NCc1ccco1 | -6.1 | 0 | 5 | 9 | 9 | -7 | 3285
CC(CC(=O)NC12CC3CC(CC(C3)C1)C2)=NNC(=O)Cc1cccs1 | 2.3 | . | 20 | 8 | . | -3 | .

Whole records as entered above.
Cc1onc(-c2c(F)cccc2Cl)c1C(=O)NCc1ccco1 reads RN4220 kill: -6.1; PrP 5UTR inh: 0; Mtb hypoxia rep: 5; Mtb hypoxia rep growth: 9; BJeLR viability: 9; Sa ugtP lethal: -7; Bead autofluor: 3285
O=C(O)c1ccc(NN=Cc2ccc(OC(=O)c3cccc(Cl)c3)cc2)cc1 reads RN4220 kill: 0.7; PrP 5UTR inh: .; Mtb hypoxia rep: 5; Mtb hypoxia rep growth: -5; BJeLR viability: .; Sa ugtP lethal: 0; Bead autofluor: .

(next part)
SMILES | RN4220 kill | PrP 5UTR inh | Mtb hypoxia rep | Mtb hypoxia rep growth | BJeLR viability | Sa ugtP lethal | Bead autofluor
COc1ccc(S(=O)(=O)Nc2ccc(S(=O)(=O)N3CCCCC3)cc2)cc1 | 1.4 | -3 | 4 | 3 | 1 | 2 | 4119
CC(=O)Nc1ccc(NC(=O)C(C)OC(=O)c2ccccc2Sc2ccccc2C#N)cc1 (configuration not stated) | 1.1 | 9 | 9 | 0 | 2 | -2 | 9106
O=C(Cc1cccc(NC(=O)C2CCN(C(=O)C3CCCC3)CC2)c1)Nc1cccc(C(=O)N2CCOCC2)c1 | 2.3 | 6 | -1 | -1 | . | 2 | 3848
O=[N+]([O-])c1ccc(-c2c[nH]c(=S)[nH]2)cc1 | . | -18 | . | . | -8 | . | ?
CNC(=S)NNC(=O)c1cccn(Cc2ccc(Cl)c(Cl)c2)c1=O | 0.2 | 5 | 3 | 6 | -3 | -1 | 22977*
O=C(NC(NC(=O)c1ccccc1)C(=O)c1ccccc1)c1ccccc1 | -12 | -15 | 14 | 5 | 2 | -3 | 3255
CC1(C)Cc2c(ccc3ccccc23)-c2nnc(-c3cccnc3)n21 | 1.7 | -26 | 8 | 11 | -8 | -3 | 5819
CCOC(=O)c1ccccc1NC(=O)c1cn(-c2ccc(OC)cc2)c(=O)c2ccccc12 | 0.5 | -21 | 3 | -1 | -9 | -23 | 2467
COc1ccc(Br)cc1CNC(=O)CCN1C(=O)COc2ccccc21 | 12 | -17 | 11 | 9 | 8 | 4 | 12488
CS(=O)(=O)N1CCCC(C(=O)N2CCc3ccccc3C2)C1 (configuration not stated) | 8.0 | -18 | -4 | -2 | 5 | 8 | 6955
C=CCNc1nc2ccccc2nc1NS(=O)(=O)c1ccc(Br)cc1 | 7.9 | -13 | -9 | -9 | -8 | -7 | 4053
Cc1ccc(N(Cc2ccccc2)C(=O)c2ccc(F)c(S(=O)(=O)N3CCOCC3)c2)cc1 | . | -12 | . | . | -9 | . | 5863
COc1cccc(NC(=O)N2C3CCCC2CC(NC(=O)C2CC2)C3)c1 (configuration not stated) | 0.5 | -16 | 2 | -12 | -2 | 1 | 3978
COc1ccc(S(=O)(=O)NC2CC3CCC2C3)cc1 (configuration not stated) | 3.4 | -12 | 6 | -1 | -15 | 11 | 3161
CSc1cccc(-n2c(C)cc(C(N)=O)c2C)c1 | -1.6 | -22 | . | . | 10 | 15 | 4532
COc1ccc(-c2csc(N3N=C(C)C(C)C3=O)n2)cc1 (configuration not stated) | 16 | -5 | -1 | 2 | -14 | 22 | 4209
CC(C)=CCOc1c2ccoc2c(OCC=C(C)C)c2oc(=O)ccc12 | 9.9 | -24 | . | . | . | 6 | 6024
N#CC(c1ccc(F)cc1)c1ccc(C(=O)c2ccc(F)cc2)cc1 (configuration not stated) | 2.3 | -63 | -4 | -7 | 1 | 15 | 2309
O=C(NCc1ccco1)C1CC(c2ccccc2O)=NO1 (configuration not stated) | 4.5 | -16 | 8 | 4 | 0 | 2 | 4989
COc1ccc(OC)c(C(C(=O)NCc2ccco2)N(C(=O)Cn2nnc3ccccc32)C2CC2)c1 (configuration not stated) | 1.2 | -9 | . | . | 2 | -1 | 2746
NC(=NOC(=O)C=Cc1ccccc1Cl)c1ccccn1 | 5.4 | . | 4 | 0 | . | -3 | .
Cc1ccc(O)c(C(=O)c2cc(C#N)c(=O)n(C(C)c3ccccc3)c2)c1 (configuration not stated) | 6.7 | -31 | 11 | 13 | 0 | 3 | 4978
Cc1ccc(CNc2ccc(Cl)cc2[N+](=O)[O-])cc1 | -1.5 | -50 | -6 | 2 | 5 | 5 | ?
Oc1ccc(/C=N/Nc2cc(N3CCCC3)nc(N3CCCC3)n2)cc1 | . | -28 | . | . | 11 | . | 5500
COc1ccccc1C(=O)NC(=S)Nc1ccc(S(=O)(=O)N2CCN(C)CC2)cc1 | 0.0 | -14 | 0 | 4 | 1 | -8 | 2014
CC(=O)NCCc1nc2ccccc2n1CCOc1ccccc1 | 5.5 | -8 | 16 | 12 | 2 | -1 | 3525
Nn1c(=S)[nH]c2sc3c(c2c1=O)CCCC3 | 19 | -24 | 11 | 6 | 17 | 0 | 5378
COc1cc(NC(=O)CSc2nc3ccccc3cc2Cc2ccccc2)cc(OC)c1 | -2.6 | -10 | 0 | 1 | 0 | 14 | 10173
S=c1nc(C2CCCCC2)[nH][nH]1 | -2.4 | -14 | -2 | -5 | -6 | 0 | 17098*
Oc1ccccc1/C=N/Nc1cccc2cccnc12 | . | -79 | . | . | 4 | . | 9096

In another format: two of the compounds above
The line under a structure holds: RN4220 kill, PrP 5UTR inh, Mtb hypoxia rep, Mtb hypoxia rep growth, BJeLR viability, Sa ugtP lethal, Bead autofluor
> CC(=O)NCCc1nc2ccccc2n1CCOc1ccccc1
 : 5.5, -8, 16, 12, 2, -1, 3525
> Cc1ccc(O)c(C(=O)c2cc(C#N)c(=O)n(C(C)c3ccccc3)c2)c1 (configuration not stated)
 : 6.7, -31, 11, 13, 0, 3, 4978

Other results follow:
SMILES | RN4220 kill | PrP 5UTR inh | Mtb hypoxia rep | Mtb hypoxia rep growth | BJeLR viability | Sa ugtP lethal | Bead autofluor
CCCCOC(=O)Sc1nc2ccccc2o1 | 1.6 | -14 | 7 | 1 | 1 | 4 | 4411
COC(=O)[C@H](Cc1ccccc1)N(C)S(=O)(=O)c1cccc(S(=O)(=O)N(C)[C@@H](Cc2ccccc2)C(=O)OC)c1 | . | -5 | . | . | -8 | . | 2787
O=S1(=O)CC/C(=N/Nc2ccc(C(F)(F)F)cn2)c2cc(F)ccc21 | . | -5 | . | . | -2 | . | 3164
COc1ccc(C(=O)NCC2CCCCC2)cc1S(=O)(=O)N1CCCC1 | -1.1 | -8 | 4 | 6 | . | 4 | 3833
CCOC(=O)C1=Nc2ccccc2/C1=C\c1c(O)n(C)c(=O)n(C)c1=O | 1.2 | -12 | 0 | -10 | 3 | 2 | 3972
COC(=O)NCC(C)OC(=O)Nc1ccc(Cl)cc1 (configuration not stated) | 3.2 | -34 | 8 | 7 | 10 | 3 | 2048
Cc1cc(S(=O)(=O)Nc2ccccc2C)ccc1F | 9.7 | -3 | 9 | 8 | 5 | -10 | 4609
COc1ccc(CNC(=O)CCS(=O)(=O)c2ccc(Br)cc2)cc1 | -0.1 | 16 | 3 | 4 | 1 | 4 | 5667
FC(F)(F)c1nnc2c3ccccc3c(Cl)nn12 | 2.5 | 12 | 2 | -7 | 1 | -2 | 3193
COc1ccc(NC(=O)Cn2cnc3sc(C)c(S(=O)(=O)N4CCN(C)CC4)c3c2=O)cc1OC | 0.9 | -22 | 5 | 7 | 5 | 5 | ?
C=CCn1c(SC(C)C#N)nc2sc(CC)cc2c1=O (configuration not stated) | 3.0 | -24 | 12 | 6 | -6 | 10 | 4417
CCOc1ccc(-c2c(C(=O)NN=Cc3ccc(C)o3)nnn2-c2nonc2N)cc1 | 2.9 | . | -2 | -11 | . | 6 | .
CCCOc1ccc(-c2cc(C(F)(F)F)c(C#N)c(SCC(=O)O)n2)cc1 | 14 | -15 | 4 | 9 | 9 | 0 | 2603
O=C1CCNCCN1[C@H](CO)c1ccccc1 | . | -28 | . | . | -6 | . | 2872
C[C@H](c1ccccc1)n1nnc(COCc2ccccc2)c1C#CCOCc1ccccc1 | . | -17 | . | . | -1 | . | 3993
CCN1CCC2(CC1)Oc1c(OC)cccc1C1CC(c3cccnc3)=NN12 (configuration not stated) | 3.3 | . | 11 | 4 | 3 | 5 | 3799
O=c1c2ccccc2oc2ccc(-c3ccc4[nH]ccc4c3)cc12 | 13 | -83 | 3 | 13 | -2 | 92* | 3422
CC(C)C[C@H](NC(=O)c1nc[nH]c1C(=O)NCC(=O)OC(C)(C)C)C(=O)OCc1ccccc1 | . | 4 | . | . | 1 | . | 4091
Cc1cccc(C)c1NC(=O)CN1CCN(CC(=O)NCC2(N3CCCCC3)CCCCC2)CC1 | 0.3 | -8 | 7 | -2 | . | 0 | 4410
CC1(C)OC(=O)N(c2cccnc2)C1(C)O (configuration not stated) | 4.6 | -8 | 9 | -1 | 1 | 14 | 2404
Cc1nc(NCCc2ccccc2)sc1C(=O)N(C)C | 0.2 | -17 | 0 | 6 | -11 | 6 | 3883
Cc1ccc(NC(=O)CSc2ccc(-c3ccccn3)nn2)cc1F | 0.9 | -6 | -1 | 5 | 0 | 1 | 5176
O=C(c1ccc(OC2CCN(Cc3cccc(F)c3)CC2)cc1)N1CCCCC1 | 4.4 | -14 | 11 | 2 | -2 | 7 | 5387
Cc1ccc(NC(=O)CN2CCN(CCN=CC3=C(O)CC(C)(C)CC3=O)CC2)cc1 | 2.7 | -9 | . | . | -1 | 3 | 2760
O=C(O)c1ccc(Oc2ccccc2)o1 | 2.8 | -48 | 0 | -4 | -9 | 6 | 5442
CCC(=O)Nc1nc(C)c(C(=O)N2CCCCC2)s1 | 3.1 | -32 | 7 | 4 | 1 | -1 | 9236
COc1ccc(N2CCN(S(=O)(=O)CCNC(=O)C3CC(=O)N(c4ccccc4)C3)CC2)cc1 (configuration not stated) | 3.9 | -30 | -1 | 0 | 10 | 6 | 5761

Of the compounds above, these contain an aryl thioether with sulfur outside any ring:
SMILES | RN4220 kill | PrP 5UTR inh | Mtb hypoxia rep | Mtb hypoxia rep growth | BJeLR viability | Sa ugtP lethal | Bead autofluor
CC(=O)Nc1ccc(NC(=O)C(C)OC(=O)c2ccccc2Sc2ccccc2C#N)cc1 (configuration not stated) | 1.1 | 9 | 9 | 0 | 2 | -2 | 9106
CSc1cccc(-n2c(C)cc(C(N)=O)c2C)c1 | -1.6 | -22 | . | . | 10 | 15 | 4532
COc1cc(NC(=O)CSc2nc3ccccc3cc2Cc2ccccc2)cc(OC)c1 | -2.6 | -10 | 0 | 1 | 0 | 14 | 10173
C=CCn1c(SC(C)C#N)nc2sc(CC)cc2c1=O (configuration not stated) | 3.0 | -24 | 12 | 6 | -6 | 10 | 4417
CCCOc1ccc(-c2cc(C(F)(F)F)c(C#N)c(SCC(=O)O)n2)cc1 | 14 | -15 | 4 | 9 | 9 | 0 | 2603
Cc1ccc(NC(=O)CSc2ccc(-c3ccccn3)nn2)cc1F | 0.9 | -6 | -1 | 5 | 0 | 1 | 5176
